Assay outcomes: PubChem, National Center for Advancing Translational Sciences (NCATS)
HSD17B inh – HSD17B dehydrogenase inhibition; recombinant HSD17B10, NADH fluorescence kinetic; many of its hits are not listed in these tables; Potency, µM (series often up to 57.1 µM), for the others: at the highest dose activity change, negative = inhibition, most hits filed as inhibitors; actives 7.6% (n = 75,000); active = well fitted inhibition curve with a large enough effect; inconclusive = small, poorly fitted or top-dose-only effect; inactive = no such curve, though single readings can be large or run the other way;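 note: the protocol describes HADH2 (HSD17B10) and not the HSD17B4 of the title; nearly all actives have a fitted effect of over 70% in size; most hits overshoot -100% by far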
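His-tagged E. coli-expressed HADH2 at 20 nM in 100 mM Tris-HCl pH 9.0 with 0.01 % Tween-20, preincubated 15 min with compound at room temperature. Reaction with 1 mM NAD+ and 90 uM beta-hydroxybutyryl coenzyme A; NADH fluorescence (360/450 nm) read kinetically over 4 min, last minus first point.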
* hit, by the source's call; [ ] = another dose, or the depositor's remark. % is set by controls: 0 for no effect and ±100 for the full control effect; potency is the fitted concentration of half-maximal effect. Some of the compounds tested; the hit share may differ from the screen's.

`Cc1oc(-c2ccc(Cl)cc2)nc1CN1CCC(C(=O)N2CCN(c3ccccn3)CC2)CC1` gave HSD17B inh -29%.
For CC/C=C\CC[C@H](O)C1=CCCCC1=O the results were HSD17B inh -2%[11.4 µM].
`O=C(CN(CCN1CCOCC1)C(=O)Cn1nnc(-c2ccc(F)cc2)n1)NC1CCCCC1` gave HSD17B inh 0%.
Cn1c(=O)[nH]c(=O)c2c1nc(N1CCCCCC1)n2CC(=O)c1ccccc1 was read as HSD17B inh 10%.
Screening COc1ccc(CC(=O)Nc2c3c(nn2-c2cccc(C)c2C)CS(=O)C3)cc1 (centres undefined) returned HSD17B inh 3%.
`O=C1OCC(Cn2c3ccccc3c3ccccc32)O1` (centres undefined) gave HSD17B inh -1%.
COc1cc2c(=O)n(CCCN3CCOCC3)c(=S)[nH]c2c(OC)c1OC was read as HSD17B inh -2%.
Screening COc1cc2c(cc1OC)C(C(=O)Nc1ccc3c(c1)OCCO3)C(c1cccnc1)N(C)C2=O (centres undefined) returned HSD17B inh 10%.
Cc1cc(C)n(-c2ccc(C(=O)Oc3ccc4c(c3)OCO4)cc2)n1 was read as HSD17B inh -5%.
Cc1nn(-c2ccccc2)c(Oc2ccc(F)cc2)c1/C=N/n1cnnc1 was read as HSD17B inh -8%.
Screening c1nc(N2CCOCC2)c2sc3nc(N4CCOCC4)c4c(c3c2n1)CCCC4 returned HSD17B inh 6%.
`Cn1c(N)c(C(=O)c2cc(-c3ccccn3)nc3ccccc23)c(=O)[nH]c1=O` gave HSD17B inh -5%.
`c1ccn2c(SCc3ccc4c(c3)OCO4)nnc2c1` gave HSD17B inh 6%.
`CCNC(=O)c1nc[nH]c1C(=O)NCC` gave HSD17B inh 0%.
Screening Cc1cc(=O)[nH]c(SCc2cc(Cl)ccc2OC(F)F)n1 returned HSD17B inh -12%.
COCCOc1nc2ccccc2nc1C was read as HSD17B inh -1%.
Screening O=C(CSc1cccc(C(F)(F)F)c1)NC(=O)NCc1ccco1 returned HSD17B inh -28%.
Screening COc1ccc(C(=O)Cn2c(Br)nc3c2c(=O)n(C)c(=O)n3C)cc1 returned HSD17B inh 1%.
O=C(O)c1ccc(CNC(=O)c2ccc(Br)o2)cc1 was read as HSD17B inh 8%.
COc1ccc2sc(NC(C)=O)nc2c1 was read as HSD17B inh -3%.
Screening c1ccc(Nc2nc(-c3ccc4c(c3)OCO4)nc3ccccc23)cc1 returned HSD17B inh 32µM*.
For COc1ccccc1-n1c(SC)nc(O)cc1=O the results were HSD17B inh -1%.
`CCCCCCn1c(-c2ccco2)nc2oc3cc(OC)ccc3c(=O)c2c1=O` gave HSD17B inh inconclusive.
Screening CC(C)n1nnnc1SCC(=O)N1CCOCC1 returned HSD17B inh 19%.
Screening O=C(CN1CCOCC1)Nc1nc(-c2ccc3c(c2)CCN3S(=O)(=O)c2ccccc2)cs1 returned HSD17B inh -11%.
For COc1ccc2c(c1)C1(Nc3ccccc3C(=O)N1c1ccccc1)C(=O)N2 (centres undefined) the results were HSD17B inh 4%.
`CCN1CCN(C(=O)CN(c2ccc(C)cc2)S(C)(=O)=O)CC1` gave HSD17B inh 8%.
For C=CCOc1c(Br)cc(CNn2nnnc2N)cc1OC the results were HSD17B inh -6%.
COc1ccc(C(c2nnnn2Cc2cccs2)N2CCN(c3ccccc3)CC2)cc1OC (centres undefined) was read as HSD17B inh -6%.
Screening COC(=O)c1ccc(COC(=O)c2ccc(-n3cnnn3)cc2)o1 returned HSD17B inh 11%.
O=C(CCNS(=O)(=O)c1cccc2nsnc12)N1CC(=O)N(CCc2ccccc2)C(=O)C1 was read as HSD17B inh inconclusive.
Screening COc1cccc(-c2nnc(SCC(=O)OC(C)C)n2Cc2ccco2)c1 returned HSD17B inh -6%.
CCOC(=O)N1CCN(C(=O)CSc2nnc(-c3cccs3)o2)CC1 was read as HSD17B inh -3%.
Screening Cc1ccc2nc3c(cc2c1)c(NC(=O)c1cccnc1)nn3C returned HSD17B inh -23%.
Screening O=S(=O)(c1ccc(F)cc1)N1CN(Cc2ccco2)c2nc3ccccc3nc21 returned HSD17B inh 32µM*.
Screening O=C(CSc1ncnc2ccccc12)Nc1ccc(N2CCOCC2)cc1 returned HSD17B inh 6%.
`O=C(Nc1ccccc1C(=O)NCc1ccco1)c1ccco1` gave HSD17B inh 2%.
Screening CSc1ccccc1NC(=O)CSc1nnnn1-c1ccccc1SC returned HSD17B inh 1%.
For Cc1cc(-c2ccccc2)nc(N2CCC(C(=O)NC(C)C)CC2)n1 the results were HSD17B inh -18%.
COc1ccc(-c2nc(CN3CCC(C(=O)NC(C)C)CC3)c(C)o2)cc1OC was read as HSD17B inh -1%.
`O=C(Cn1c(=O)n(-c2cccc(Cl)c2)c(=O)n1CC(=O)N1CCCCC1)N1CCCCC1` gave HSD17B inh 10%.
`O=[N+]([O-])c1ccc(CSc2ncnc3c2ncn3[C@@H]2O[C@@H](CO)[C@@H](O)[C@H]2O)cc1` gave HSD17B inh -6%.
c1ccc(Cn2nnnc2C(c2cccnc2)N2CCN(c3ccccc3)CC2)cc1 (centres undefined) was read as HSD17B inh 7%.
For c1ccc(OCc2nn3c(-c4n[nH]c5c4CCC5)nnc3s2)cc1 the results were HSD17B inh 9%.
For Cc1ccc(OCCOCCn2ccnc2)c(Br)c1 the results were HSD17B inh 4%.
CN(C)c1ccc(-c2nn3c(-c4cccnc4)nnc3s2)cc1 was read as HSD17B inh 5%.
Cc1cc(C)c2nc(N3CCC(C(=O)N4CCN(c5ncccn5)CC4)CC3)sc2c1 was read as HSD17B inh -1%.
`COC(=O)c1cc(OC)c(OC)cc1NC(=O)c1c(C)noc1C` gave HSD17B inh -10%.
`Cc1cc(C)nc(N2CCCC(C(=O)NCCc3ccccc3F)C2)n1` (centres undefined) gave HSD17B inh -8%.
Screening COC(=O)c1cn(C(C)C(=O)NCc2ccco2)c2ccccc12 (centres undefined) returned HSD17B inh 8%.
For COC(=O)c1c(C)cc(OC)cc1O the results were HSD17B inh -2%.
For O=C(c1cc2c(=O)oc3ccccc3c2s1)N1CCN(c2ccccn2)CC1 the results were HSD17B inh 2%.
Screening Cc1ccc(S(=O)(=O)NCCCC(=O)C=[N+]=[N-])cc1 returned HSD17B inh -4%.
Screening CS(=O)(=O)N(CC(=O)NCc1cccnc1)Cc1ccc(Cl)cc1 returned HSD17B inh 3%.
`Cc1ccccc1NC(=O)c1cc(S(=O)(=O)N2CCOCC2)ccc1F` gave HSD17B inh -1%.
`O=C1c2sc3nc4c(c(=O)n3c2C(=O)N1c1ccccc1)CCC4` gave HSD17B inh -3%.
Screening CC(C)(C)CC(C)(C)c1ccc(OCOCCOCCO)c(Cc2cc(C(C)(C)CC(C)(C)C)cc(Cc3cc(C(C)(C)CC(C)(C)C)ccc3OCOCCOCCO)c2OCOCCOCCO)c1 returned HSD17B inh -1%[25.6 µM].
Screening N#Cc1ccccc1-c1ccc2ncnc(N3CCNCC3)c2c1 returned HSD17B inh 25µM*.
Screening OCCNCCCCCOc1ccc(F)cc1 returned HSD17B inh -4%.
For CCCC(=O)c1c(NC)cc(C)oc1=O the results were HSD17B inh -1%.
`Cc1nc2ccccn2c1/C(O)=C1\C(=O)C(=O)N(CCN2CCOCC2)C1c1cccnc1` (centres undefined) gave HSD17B inh -10%.
Screening CCOC(=O)C1CCCN(c2c(NCCCN(C)c3ccccc3)c(=O)c2=O)C1 (centres undefined) returned HSD17B inh 1%.
`COCc1nnc(NC(=O)CSc2ccccc2)s1` gave HSD17B inh 0%.
Screening O=C(Oc1ccccc1)N1CCC2(CCCN(c3ccccn3)C2)CC1 returned HSD17B inh 25µM*.
`Cc1csc(NC(=O)c2cccc(S(=O)(=O)N3CCCCC3)c2)n1` gave HSD17B inh 4%.
For CC(C)n1c(SCC(=O)N2c3ccccc3Sc3ccccc32)nc2c1c(=O)n(C)c(=O)n2C the results were HSD17B inh 11%.
Cc1cc2ccccc2n1CCNC(=O)c1ccc(S(=O)(=O)N2CCOCC2)cc1 was read as HSD17B inh 7%.
Cc1ccc(SCCC(=O)N2CCC(C(N)=O)CC2)cc1 was read as HSD17B inh -3%.
For Cc1ccc(N2C(=O)CSC2c2cccs2)cc1 (centres undefined) the results were HSD17B inh -4%.
`CCOCCSC1=C(C#N)C(c2cccs2)C(C(C)=O)=C(C)N1` (centres undefined) gave HSD17B inh -8%.
CC(C)=CC/C=C1\CCC(C(=O)O)C(C(=O)O)C1 (centres undefined) was read as HSD17B inh 10%.
For O=C(CCCNS(=O)(=O)c1cccs1)N1CCN(c2ccc(F)cc2)CC1 the results were HSD17B inh 0%.
Screening COc1cccc(C2C(C(=O)c3ccc(C)o3)=C(O)C(=O)N2CCCN(C)C)c1 (centres undefined) returned HSD17B inh 7%.
Screening CCN(CC)CCOC(=O)[C@@H](c1ccccc1)C1CCCCC1 returned HSD17B inh 2%[25.6 µM].
Screening CC(C)C(=O)Nc1nc2c(ncn2C2CC(O)C(CO)O2)c(=O)[nH]1 (centres undefined) returned HSD17B inh 0%.
CCc1nc2ccccc2n(CCOCCOCCn2c(=O)c(CC)nc3ccccc32)c1=O was read as HSD17B inh -3%.
Cn1c(=O)oc2cc(S(=O)(=O)N3CCC(N4CCCCC4)CC3)ccc21 was read as HSD17B inh 8%.
For Cc1nc2ccccc2nc1OCC(=O)N1CCN(c2ccccc2)CC1 the results were HSD17B inh -4%.
`Fc1ccc(-c2nc3n(n2)Cc2ccccc2-3)cc1` gave HSD17B inh 4%.
`CC(=O)N1CCN(c2ccc(NC(=O)COc3ccc(Cl)cc3Cl)cc2)CC1` gave HSD17B inh -3%.
Screening Cc1cc(NC(=O)c2ccccc2F)n(-c2nc3ccccc3[nH]2)n1 returned HSD17B inh 1%.
For Cc1ccc(S(=O)(=O)N2CCN(C(=O)N3CCOCC3)C2c2ccc(N(C)C)cc2)cc1 (centres undefined) the results were HSD17B inh 3%.
COC(=O)N1CCC[C@@]2(CCN(Cc3nccs3)C2)C1 was read as HSD17B inh 8%.
Screening COc1cccc(C(=O)N(Cc2cc3cc(C)ccc3[nH]c2=O)CC2CCCO2)c1 (centres undefined) returned HSD17B inh inconclusive.
For Cc1ccc(NC(=O)N2CCCC2C(=O)NCCC2=CCCCC2)cc1 (centres undefined) the results were HSD17B inh 1%.
`COc1ccccc1N1CCN(C/C(O)=C(\C#N)c2nc(-c3ccccc3)cs2)CC1` gave HSD17B inh -13%.
COC(=O)N1CCC2(CC1)CCN(c1ccncc1)CC2 was read as HSD17B inh 10%.
CC1(C(=O)N(CC(=O)NC2CCCC2)Cc2ccco2)CC(=O)N=C2C=CC=CN21 (centres undefined) was read as HSD17B inh 25µM*.
`O=c1c2cnn(-c3ccc(F)cc3)c2ncn1Cc1ccccn1` gave HSD17B inh 2%.
COc1ccccc1-c1noc(-c2cccnc2)n1 was read as HSD17B inh -1%.

The list goes on; it opens with the 6 that closed the last part.
For Cc1ccc(NC(=O)N2CCCC2C(=O)NCCC2=CCCCC2)cc1 (centres undefined) the results were HSD17B inh 1%.
`COc1ccccc1N1CCN(C/C(O)=C(\C#N)c2nc(-c3ccccc3)cs2)CC1` gave HSD17B inh -13%.
COC(=O)N1CCC2(CC1)CCN(c1ccncc1)CC2 was read as HSD17B inh 10%.
CC1(C(=O)N(CC(=O)NC2CCCC2)Cc2ccco2)CC(=O)N=C2C=CC=CN21 (centres undefined) was read as HSD17B inh 25µM*.
`O=c1c2cnn(-c3ccc(F)cc3)c2ncn1Cc1ccccn1` gave HSD17B inh 2%.
COc1ccccc1-c1noc(-c2cccnc2)n1 was read as HSD17B inh -1%.
Cc1ccc(C(=O)NC(Cc2c[nH]c3ccccc23)C(=O)O)o1 (centres undefined) was read as HSD17B inh -4%.
For CCOCCCNC(=O)C(NC(=O)CC1NC(=O)NC1=O)c1ccc(Cl)cc1 (centres undefined) the results were HSD17B inh 3%.
CN(C)S(=O)(=O)c1ccc2c(c1)c(=O)c(C(=O)N1CCOCC1)cn2C was read as HSD17B inh -20%.
`CC(=O)OCC(=O)NCc1ccc2c(c1)OCO2` gave HSD17B inh 7%.
For CCOC(=O)N1CCC(NC(=O)c2cnc3n(c2=O)CCS3)CC1 the results were HSD17B inh -9%.
`O=C(Nc1ccccc1N1CCN(C(=O)c2ccc(Cl)cc2)CC1)c1cccnc1` gave HSD17B inh -10%.
Screening CCOC(=O)N1CCN(c2nnnn2-c2ccccc2)CC1 returned HSD17B inh 4%.
Screening N#Cc1cnn(Cc2ccc(Cl)cc2)c1N returned HSD17B inh 8%.
`CC(C)C(=O)N(c1ccc2oc(=O)sc2c1)S(=O)(=O)c1cccs1` gave HSD17B inh 32µM*.
Fc1cccc(Cl)c1CSc1nnc(COc2cccc3cccnc23)o1 was read as HSD17B inh inconclusive.
Cc1cc(=O)[nH]c(/N=C(\N)Nc2ccc(Cl)cc2)n1 was read as HSD17B inh 6%[11.4 µM].
`COc1cccc(N2CCN(C3CC(=O)N(c4ccc(Cl)c(Cl)c4)C3=O)CC2)c1` (centres undefined) gave HSD17B inh -6%.
Screening CC(=O)c1ccc(N2CCN(C(=O)c3ccc4c(=O)n(-c5ccccc5)c(=O)[nH]c4c3)CC2)cc1 returned HSD17B inh inconclusive.

As a short view, some entries already given.
Cc1ccc(C(=O)NC(Cc2c[nH]c3ccccc23)C(=O)O)o1 (centres undefined) was read as HSD17B inh -4%.
For CCOCCCNC(=O)C(NC(=O)CC1NC(=O)NC1=O)c1ccc(Cl)cc1 (centres undefined) the results were HSD17B inh 3%.
CN(C)S(=O)(=O)c1ccc2c(c1)c(=O)c(C(=O)N1CCOCC1)cn2C was read as HSD17B inh -20%.
`CC(=O)OCC(=O)NCc1ccc2c(c1)OCO2` gave HSD17B inh 7%.
For CCOC(=O)N1CCC(NC(=O)c2cnc3n(c2=O)CCS3)CC1 the results were HSD17B inh -9%.
